# Compound activity as filed in PubChem.
# CBX7 AlphaScr = CBX7 chromodomain binding inhibitors, primary screen, biochemical, AlphaScreen; 1.1% of 66,000 active; AlphaScreen His6-CBX7 / biotin-H3K27me3 peptide binding; active compounds read low; Chromobox protein homolog 7 (Homo sapiens), O95931; normalised signal (fraction of DMSO) (concentration not given with the values); in the data active = normalised signal below about 0.5;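 also: 100 nL library stock added to about 20 µL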
# Target sequence (O95931 whole entry, looked up): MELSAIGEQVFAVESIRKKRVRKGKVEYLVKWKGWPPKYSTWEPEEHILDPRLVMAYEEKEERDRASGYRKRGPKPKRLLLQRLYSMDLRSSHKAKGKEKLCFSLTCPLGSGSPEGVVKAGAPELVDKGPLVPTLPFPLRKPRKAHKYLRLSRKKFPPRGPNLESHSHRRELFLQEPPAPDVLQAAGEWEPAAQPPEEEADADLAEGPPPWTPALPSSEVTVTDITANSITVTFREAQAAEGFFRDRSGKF
# CBX7 AlphaScr z-score = further read-out of CBX7 AlphaScr, marked with its call; z-score; measured here: z-score of CBX7 signal; some inactives read as strong as hits; reference of the scale not given here;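 same signal on another scale; lower means less binding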
# Active calls of the source: *.
SMILES,CBX7 AlphaScr,CBX7 AlphaScr z-score
O=C1c2ccccc2C(=O)N1c1ccc(OCC(O)COC2CCCCC2)cc1 (stereo not drawn),1.1,1.7
O=c1oc2ccc(Br)cc2cc1-c1cn2ccccc2n1,1,0.69
CCOC(=O)c1ccc(NC2c3ccccc3C(=O)N2Cc2ccccc2Cl)cc1 (stereo not drawn),0.99,-0.012
Brc1ccc(-c2cnc3ccccc3n2)cc1,1.1,0.36
Cc1nc2ccc(S(=O)(=O)NC(CC(C)C)C(=O)NCc3ccc(Cl)cc3)cc2s1 (stereo not drawn),0.99,-0.18
CCCCn1c(CNC(=O)c2ccc(Cl)cc2)nc2ccccc21,1.2,2.3
CC(C)c1ccc(NC(=O)C(c2ccccc2)N2CCCCC2)cc1 (stereo not drawn),1.1,0.89
O=C(c1ccc2c(c1)N(Cc1ccccc1)CCS2)N1CCN(Cc2ccccc2)CC1,0.37*,-0.84*
Cc1cccc(NC(=O)CN2N=C(c3ccccc3)CCC2=O)c1C,1,0.44
Cc1ccc2c(c1C)NC(=O)CC2c1ccccc1Br (stereo not drawn),0.99,-0.22
COc1ccc(Nc2nnc(-c3ccc(C)c(S(=O)(=O)NCC4CCCO4)c3)c3ccccc23)cc1 (stereo not drawn),0.91,-0.1
Cc1ccc2nc(SCc3nc4ccccc4[nH]3)[nH]c2c1,1.1,1.5
COc1ccc(-c2cc(C(=O)Nc3ccc(F)cc3F)no2)cc1,1.1,2.1
Cc1cc(O)ccc1-c1cnc2ccccc2n1,1,0.53
CC(=O)Nc1cc(C)nn1-c1nc2ccccc2n1C,0.96,-0.43
CCCC(O)(c1ccc(OCCC(C)C)cc1)C(CN1CCOCC1)c1ccccc1 (stereo not drawn),0.77,-5
CCOc1ccc(-c2csc(NC(=O)c3ccc(Oc4ccccc4)cc3)n2)cc1,1,0.27
COC(=O)c1cc2c(cc1NC(=O)c1cc3c(s1)-c1c(C)cccc1OC3)OCO2,1.1,1.6
CCOc1cc2sc(N3CCC(C(=O)Nc4ccc(C)cc4)CC3)nc2cc1Br,1,0.7
CCc1nnc(NC(=O)c2ccc(Cc3ccccc3)cc2)s1,1,0.14
COc1ccc2nc(NC(=O)NC3CCCCC3)sc2c1,1,0.17
O=C(NCCCn1ccnc1)c1nn2c(C(F)(F)F)cc(-c3ccco3)nc2c1Br,0.92,-3.2
CCc1ccccc1NC(=O)C(CC(C)C)NS(=O)(=O)c1ccc2nc(C)sc2c1 (stereo not drawn),1.1,3.1
O=C(CN1C(=O)c2ccccc2Sc2ccc(C(=O)N3CCCC3)cc21)Nc1ccc(F)cc1Cl,1,0.096
Cc1nc(Nc2ccc(Oc3ccccc3)cc2)c2cc(C)sc2n1,1,1.5
Cc1ccccc1N1C(=O)C(Oc2ccc(Cl)cc2)C1CNCCCOC(C)C (stereo not drawn),1,0.02
Fc1ccccc1-c1nc(N2CCOCC2)c2ccccc2n1,0.93,-1.7
CCOc1ccc(NC(=O)c2cnc3ccccn3c2=O)cc1,0.91,-1.2
CCOC(=O)N1CCC(Nc2c(NCCCN3CCCC3)c(=O)c2=O)CC1,0.99,-0.087
COc1ccccc1Nc1cc(C(=O)NCCN(Cc2ccccc2)C(C)C)c2ccccc2n1,1.5,8.9
COc1ccc(Cl)cc1S(=O)(=O)NCCc1c(C)[nH]c2ccc(F)cc12,0.92,-1.7
CCCCN1C(=O)CN(C2CCC(C)CC2)C(=O)C1c1ccc(OC(C)C)c(OC)c1 (stereo not drawn),0.91,-0.11
COCC(C)NC(=O)c1c(-c2c(Cl)cccc2Cl)noc1C (stereo not drawn),1.1,3
Cc1c(Cl)cccc1NC(=O)CN(C)S(=O)(=O)c1cccc2cccnc12,0.84,-1.9
Cc1ccc(NC(=O)c2cc3c(-c4ccc(Cl)cc4)nn(C)c3s2)cc1F,1.1,1.7
CC(C(=O)NCc1ccccc1Cl)n1ncc2ccccc21 (stereo not drawn),0.85,-2.7
COc1ccc(CCNC(=O)CCN2C(=O)C(C)Oc3ccc(C)cc32)cc1OC (stereo not drawn),0.95,-1.4
Cc1c(NC(=O)COc2ccc(C(C)(C)C)cc2)cccc1-c1nc2ncccc2o1,0.95,-0.45
COc1ccc(C2C(C(=O)Nc3ccc(C)cn3)=C(C)NC3=C2C(=O)CCC3)cc1 (stereo not drawn),0.81,-1.9
CCc1nc2sc(C(=O)c3ccccc3)c(N)c2cc1C,1.1,4.6
CCCCOc1ccccc1NC(=O)CC1Sc2ccc(C(F)(F)F)cc2NC1=O (stereo not drawn),1.1,0.066
CCC(C(=O)NCC1CCCN1CC)n1ncc2ccccc21 (stereo not drawn),1,0.17
Cc1cccc(OCc2nc(C#N)c(NCc3cccnc3)o2)c1,0.92,-3.4
Cc1nc2nc(SCC(=O)NC3CC(C)CC(C)C3)nn2c(C)c1Cc1ccccc1 (stereo not drawn),1.1,0.33
CCOCCCNC(=O)CCC(=O)Nc1ccc2nc(N3CCC(C)CC3)cc(C)c2c1,0.99,-0.29
O=c1c2ccccc2nc(N2CCN(Cc3ccc4c(c3)OCO4)CC2)n1-c1ccccc1,0.74,-0.54
Cc1ccc(C2CC(C(F)(F)F)n3nc(C(=O)N4CCOCC4)cc3N2)cc1 (stereo not drawn),0.96,-0.71
COc1cc(OC)c(OC)cc1CN1CCN(Cc2ccccc2Cl)CC1,0.99,-0.13
Cc1ccc(S(=O)(=O)c2nc(-c3cccc([N+](=O)[O-])c3)oc2N(C)C)cc1,0.94,-0.75
O=C(NC1CCCC1)c1cc(-c2ccncc2)nc2ccc(S(=O)(=O)N3CCOCC3)cc12,1.1,0.74
Oc1ccccc1-c1nc(Nc2ccc(Cl)cc2)c2ccccc2n1,1,0.0077
CCc1cccc(-n2c(C)nc3c(cnn3-c3ccccc3C)c2=O)c1,1.1,1.4
CC1CCN(S(=O)(=O)c2ccc3c(c2)N(CC(=O)NC2CCCC(C)C2C)C(=O)CO3)CC1 (stereo not drawn),1,0.24
COc1ccc(OC)c2[nH]c(=O)c(CCN3C(=O)c4ccccc4C3=O)cc12,1,0.19
Cc1ccc(-c2nc(CS(=O)(=O)CC(=O)NCC(C)c3ccccc3)c(C)o2)cc1 (stereo not drawn),0.89,-0.24
COc1ccc2nc(N3CCC(C(=O)NCc4ccccn4)CC3)sc2c1,0.98,-0.35
COCCNC(=O)c1nn2c(C(F)(F)F)cc(-c3ccc(Br)o3)nc2c1Br,0.99,-0.08
COc1cc(NC(=O)Cn2c(SCc3ccc(F)cc3)nc3ccncc32)cc(OC)c1,0.94,-2.9
CCCCN(C)C(=O)c1ccc2c(c1)N(Cc1cccc(F)c1)C(=O)c1ccccc1S2,1,0.27
CCN(CC)S(=O)(=O)c1ccc(C(=O)Nc2nnc(COC)o2)cc1,0.024*,-1.3*

# A second format for part of the listing above.
> COc1ccc2nc(N3CCC(C(=O)NCc4ccccn4)CC3)sc2c1
  CBX7 AlphaScr: 0.98
  CBX7 AlphaScr z-score: -0.35
> COCCNC(=O)c1nn2c(C(F)(F)F)cc(-c3ccc(Br)o3)nc2c1Br
  CBX7 AlphaScr: 0.99
  CBX7 AlphaScr z-score: -0.08

# Filtered by structure, those above with a CF3 group (four)
SMILES,CBX7 AlphaScr,CBX7 AlphaScr z-score
O=C(NCCCn1ccnc1)c1nn2c(C(F)(F)F)cc(-c3ccco3)nc2c1Br,0.92,-3.2
CCCCOc1ccccc1NC(=O)CC1Sc2ccc(C(F)(F)F)cc2NC1=O (stereo not drawn),1.1,0.066
Cc1ccc(C2CC(C(F)(F)F)n3nc(C(=O)N4CCOCC4)cc3N2)cc1 (stereo not drawn),0.96,-0.71
COCCNC(=O)c1nn2c(C(F)(F)F)cc(-c3ccc(Br)o3)nc2c1Br,0.99,-0.08

# As a short view, 3 of the compounds above:
SMILES,CBX7 AlphaScr,CBX7 AlphaScr z-score
Cc1cc(O)ccc1-c1cnc2ccccc2n1,1,0.53
CC(=O)Nc1cc(C)nn1-c1nc2ccccc2n1C,0.96,-0.43
CCCC(O)(c1ccc(OCCC(C)C)cc1)C(CN1CCOCC1)c1ccccc1 (stereo not drawn),0.77,-5

# Next part:
SMILES,CBX7 AlphaScr,CBX7 AlphaScr z-score
O=C(NCCc1ccccc1)C(=O)c1c(-c2ccccc2)[nH]c2ccccc12,0.88,-1.9
O=C(CN1C(=O)COc2ccc(S(=O)(=O)N3CCCC3)cc21)NC1CCCCCCC1,1.1,1.3
COc1ccc(-c2nc3ccccn3c2Nc2ccc3c(c2)OCO3)cc1,0.9,-1.7
Cc1cccc2nc(-c3cccc(NC(=O)c4cccs4)c3)cn12,0.92,-1.6
CCN(CC)CCn1c(=N)n(CC(O)COc2ccccc2OC)c2ccccc21 (stereo not drawn),1,0.2
CCc1ccc2[nH]cc(S(=O)(=O)c3ccc(C)c(C)c3)c(=O)c2c1,0.96,-0.57
O=C(c1cc(-c2ccc(F)cc2)on1)N1CCN(C(c2ccccc2)c2ccccc2)CC1,0.94,-0.086
O=C(CC1(CC2=NS(=O)(=O)c3ccccc3N2)CCCC1)NC1CCCCCC1,1,1.4
CC(C)(CN=C1NS(=O)(=O)c2ccccc21)CNC(=O)c1ccccc1Br,1,0.56
CCN(CC)CCCNC(=O)c1nn2c(c1Cl)NC(c1cccs1)CC2C(F)(F)F (stereo not drawn),1.3,2.8
O=C(NCCCN1CCOCC1)C1CCC(=O)N1Cc1ccc(F)cc1 (stereo not drawn),1.1,2.9
COc1cc(NC(=O)COc2ccccc2C(C)C)c(OC)cc1Cl,1.4,0.96
O=C(Nc1ccc2oc(-c3ccc(F)cc3Cl)nc2c1)c1ccccc1F,1,1.9
Cc1ccc(-n2nc(C)c3c(C)c(CCC(=O)NC4CCCC4)c(C)nc32)cc1,1.2,1.7
COc1ccc(-c2nn(C)c3sc(C(=O)NCCCOC(C)C)cc23)cc1OC,1.1,0.94
Cc1cc(NC(=O)NC(=O)c2ccccc2F)n[nH]1,1.3,2.8
Cc1cc(F)ccc1NC(=O)CS(=O)(=O)Cc1nc(-c2ccccc2C)oc1C,0.99,-0.17
Cc1ccc(CSc2nc3ccncc3n2Cc2cccc(Cl)c2)cc1,0.91,-2.3
CCOC(=O)c1ccc2c(c1)N(Cc1ccc(C)cc1)C(=O)c1ccccc1S2,1.1,1.7
CCC(C)NC(=O)c1cc(-c2cccc(OC)c2)on1 (stereo not drawn),1.2,0.96

# Fetched by structure from the list above (three):
SMILES,CBX7 AlphaScr,CBX7 AlphaScr z-score
O=C(NCCc1ccccc1)C(=O)c1c(-c2ccccc2)[nH]c2ccccc12,0.88,-1.9
Cc1cc(F)ccc1NC(=O)CS(=O)(=O)Cc1nc(-c2ccccc2C)oc1C,0.99,-0.17
O=C(c1cc(-c2ccc(F)cc2)on1)N1CCN(C(c2ccccc2)c2ccccc2)CC1,0.94,-0.086

# Going on with the list:
SMILES,CBX7 AlphaScr,CBX7 AlphaScr z-score
COc1ccc(-c2cc(C(F)(F)F)n3ncc(C(=O)NCc4cccnc4)c3n2)cc1OC,1.1,0.88
Cc1ccccc1CN1C(=O)c2ccccc2S(=O)c2ccc(C(=O)NCc3cccs3)cc21 (stereo not drawn),0.98,-0.81
Cc1ccc(-c2nc3c(cnn3-c3ccccc3)c(=O)n2-c2cccc(Cl)c2)cc1,0.83,-6.9
Cc1ccc(-c2nc(Nc3ccc(Oc4ccc(Cl)cc4)cc3)c3ccccc3n2)cc1,1.2,2.7
COc1ccc(CN2CC(C(=O)NCc3ccc(F)cc3)CC2=O)cc1 (stereo not drawn),1.1,2.5
COc1ccccc1N1CCN(C(=O)c2cc(-c3cccc(Cl)c3)on2)CC1,1,-0.038
COCCNC(=O)CN1CCN(Cc2ccc(F)cc2Cl)C1=O,0.88,-1.7
CSc1cccc(NS(=O)(=O)c2ccc3[nH]cc(C(=O)NC4CC4)c(=O)c3c2)c1,0.64,-6.7
CCCCCn1c(=O)[nH]c2cc(C(=O)NCCOC)ccc2c1=O,1.1,1.8
O=C(CSc1nc2ccncc2[nH]1)Nc1ccc(F)c(Cl)c1,0.88,-1.8
CN(c1ccccc1)S(=O)(=O)c1ccc(C(=O)Nc2ccccc2-c2nc3ccccc3s2)cc1,1.1,2.5
CCOc1ccc(N2C(=O)CC(NCCc3ccccn3)C2=O)cc1 (stereo not drawn),0.86,-3.8
COc1cc2c(cc1OC)C(C(=O)NC(C)C)C1c3ccccc3CCN1C2=O (stereo not drawn),0.95,-1.4
O=C(NCc1ccc(Cl)cc1)C1CCN(S(=O)(=O)c2ccccc2)CC1,1.1,1.6
CCOc1ccc(-c2cc(CCCC(=O)NCCc3cc(OC)ccc3OC)no2)cc1,0.95,-0.89
O=C(c1cnn(-c2ccccc2)c1-n1cccc1)N1CCc2ccccc21,0.97,-1.1
Cc1ccc(NS(=O)(=O)c2ccc3c(c2)n(C)c(=O)c(=O)n3C)cc1C,1.2,1.1
Cc1ccc2c(c1)N(CC(=O)NC1CC1)C(=O)CO2,1.1,0.41
COc1ccc(NC(=O)C(Cc2ccccc2)NS(=O)(=O)c2cccs2)cc1 (stereo not drawn),1,0.92
Cc1ccc(C(C(=O)NC2CCCC2)N2CCc3ccccc32)cc1 (stereo not drawn),0.99,-0.3
COc1ccc(-n2nc3c(c2NC(=O)Cc2ccc(OC)c(OC)c2)CSC3)cc1,0.94,-2.8
CCN1C(=O)c2ccccc2S(=O)(=O)c2ccc(C(=O)NC3CC3)cc21,1.1,3.3
CCOC(=O)c1nnn(-c2nonc2N)c1CSc1nc(C)cc(C)n1,1,1.2
COc1ccc(N2C(=O)C(CC(=O)Nc3ccccc3)N(Cc3ccc4c(c3)OCO4)C2=O)cc1 (stereo not drawn),1,1.3
c1ccc(C(c2ccccc2)c2noc(CSc3nnnn3-c3ccccc3)n2)cc1,1,0.052
O=C(Cn1ncc2c1-c1ccccc1OC2)Nc1ccc(F)cc1,0.85,-2.2
O=C(NCCc1ccccc1)c1csc2c1CCCCC2,0.77,-0.91

# A portion of the library, so the mix of outcomes need not match the whole.
